ALR inh: inhibitors of human ALR sulfhydryl oxidase, primary screen, biochemical, H2O2 detection, HRP-luminol luminescence, single point | inhibition, % (no concentration beside the values) | AID 485317, 2010 | purified ALR, DTT oxidation | 290,000 compounds, 3.8% hits | FAD-linked sulfhydryl oxidase ALR (Homo sapiens), P55789;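 active = mean and each replicate at 75% or more; inconclusive = only one of the two met; inactive = neither met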;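 note: stock transfer was 7.5 nL into about 7.5 µL; 0% = neutral wells and 100% = wells with inactivated enzyme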
Calb FLC: C. albicans growth inhibition with fluconazole, primary screen, CaCi-2 strain, Alamar Blue fluorescence; C. albicans CaCi-2 (fluconazole-resistant clinical isolate) + fluconazole, 48 h; growth inhibition, % (no concentration beside the values); 300,000 compounds, 0.57% hits;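 active = most replicates above 75%; inconclusive = exactly half above 75%; inactive = most below 75%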;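 note: all wells also contain fluconazole at 8 µg/ml as a sub-toxic cotreatment; 0% = median of DMSO wells and 100% = median of geldanamycin control wells; wells of about 8 µL received 7.5 nL stock; the first replicate is given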
HNF4A DNA FP: change in binding of human HNF4A to DNA, primary screen, biochemical, fluorescence polarization, FITC-DNA; 360,000 compounds, 0.3% hits; Hepatocyte nuclear factor 4-alpha (Homo sapiens), P41235; 1 h; activity change, % at 10 µM; in the data active = activity change above about 30%, passing the limit was not always enough;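 note: controls were the assay level and a saturating level of protein; the project sought stronger binding though the title names inhibitors; some compounds called inactive have numbers as strong as hits; positive values seem to mean higher polarization but the record does not say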
RanGTP-Imp inh: inhibitors of RanGTP-importin-beta interaction, primary screen, biochemical, FRET, CFP-Ran, YFP-importin-beta, homogeneous; Ran GTPase (GTP-bound) - importin-beta complex; cell-free CFP-Ran/YFP-importin-beta FRET ratio; inhibition, % (test concentration not listed); 300,000 compounds, 1.1% hits;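 active = most replicates above 15%; inconclusive = exactly half above 15%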;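 note: 0% = DMSO wells and 100% = Ran loaded with GDP instead of GTP; wells of about 40 µL received 100 nL stock; the first replicate is given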
Vif A3G: inhibitors of Vif binding to APOBEC3G peptide, primary screen, biochemical, TR-FRET, GST-Vif 1-94, biotin-A3G peptide, dose response retest (AID 1117319); Virion infectivity factor (Human immunodeficiency virus type 1 group M subtype B (isolate …; TR-FRET GST-Vif / biotin-A3G peptide binding; higher % means a stronger effect; test concentration not given here; strong numbers were not always called active; one-dose inhibition, %; IC50 in µM for titrated hits; 260,000 compounds, 0.57% hits;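 active = above the screen mean plus three standard deviations and confirmed in dose response; inconclusive = results disagree or hit not tested in dose response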;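 note: Vif residues 1-94 fused to GST binding biotinylated APOBEC3G peptide 110-148; 0% = full assay without inhibitor and 100% = GST in place of GST-Vif; retest series ran down from 100 µM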
B2AR ag: beta2AR agonists driving receptor internalization, primary screen, cell-based, FAP fluorogen, flow cytometry; 340,000 compounds, 0.43% hits; Am2.2-beta2AR cells; reference of the scale not given here; Beta-2 adrenergic receptor (Homo sapiens), P07550; response, % (no concentration beside the values);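 active = response above a set limit, near 3 SD of response in nonfluorescent compounds, cut at about 42% in these data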;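 note: stock transfer was 100 nL into about 11 µL; a reference agonist was the positive control; negative values mostly stem from fluorescent compounds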
LANA-H2B inh: blockers of LANA interaction with H2A/H2B – biochemical, FP readout, HTS, primary screen | cell-free LANA-H2A/H2B peptide, fluorescence polarization | inhibition, % (no concentration beside the values) | 320,000 compounds, 0.6% hits; in the data active = inhibition mostly above about 10%, no sharp cut-off; inactive = mostly below about 6.7%;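 note: stock transfer was 7.5 nL into about 10 µL; 0% = median of vehicle wells and 100% = median of positive control wells; one replicate is shown; the record names a cut of 25% in any replicate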
Target sequence (Q9QR71 whole entry, looked up): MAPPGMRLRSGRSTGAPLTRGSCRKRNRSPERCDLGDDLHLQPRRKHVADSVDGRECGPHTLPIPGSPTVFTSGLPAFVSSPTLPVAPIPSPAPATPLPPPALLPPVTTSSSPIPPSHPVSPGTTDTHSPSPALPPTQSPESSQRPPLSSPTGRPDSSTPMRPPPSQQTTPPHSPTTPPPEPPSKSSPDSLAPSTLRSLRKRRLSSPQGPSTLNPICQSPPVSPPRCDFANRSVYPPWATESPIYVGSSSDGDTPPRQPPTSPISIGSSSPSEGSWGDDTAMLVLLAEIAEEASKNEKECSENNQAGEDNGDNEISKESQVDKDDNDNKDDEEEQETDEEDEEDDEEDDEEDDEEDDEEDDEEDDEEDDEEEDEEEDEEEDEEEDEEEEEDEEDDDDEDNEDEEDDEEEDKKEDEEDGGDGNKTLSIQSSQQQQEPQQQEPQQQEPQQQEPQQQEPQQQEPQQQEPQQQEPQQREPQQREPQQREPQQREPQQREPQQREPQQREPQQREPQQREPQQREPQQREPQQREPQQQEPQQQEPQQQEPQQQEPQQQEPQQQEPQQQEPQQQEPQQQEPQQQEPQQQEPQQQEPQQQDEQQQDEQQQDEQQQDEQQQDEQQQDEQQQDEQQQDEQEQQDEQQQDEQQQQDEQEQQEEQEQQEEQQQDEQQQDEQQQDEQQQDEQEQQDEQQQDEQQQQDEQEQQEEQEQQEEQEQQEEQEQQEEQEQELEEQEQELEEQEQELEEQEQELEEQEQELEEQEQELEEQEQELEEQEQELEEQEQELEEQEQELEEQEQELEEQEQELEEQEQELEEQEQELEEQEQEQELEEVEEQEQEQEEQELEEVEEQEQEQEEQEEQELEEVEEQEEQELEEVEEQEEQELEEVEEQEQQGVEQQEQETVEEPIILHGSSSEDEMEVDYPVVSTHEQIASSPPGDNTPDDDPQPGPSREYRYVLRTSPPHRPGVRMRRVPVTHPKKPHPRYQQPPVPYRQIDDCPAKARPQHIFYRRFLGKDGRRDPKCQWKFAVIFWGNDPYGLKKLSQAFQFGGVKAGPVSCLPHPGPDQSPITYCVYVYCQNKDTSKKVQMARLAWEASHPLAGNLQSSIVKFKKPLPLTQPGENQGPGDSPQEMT
Numbers without * were called inactive; ? = inconclusive; . = not tested or not shown.

SMILES	ALR inh	Calb FLC	HNF4A DNA FP	RanGTP-Imp inh	Vif A3G	B2AR ag	LANA-H2B inh
Cn1ccc(NS(=O)(=O)c2cc(Br)ccc2Br)n1	-5	.	-1.6	.	13%	2	-1.2
CCn1cnc2c1c(=O)n(Cc1csc(-c3ccccc3)n1)c(=O)n2Cc1ccccc1	-5	.	3.3	-1.4	-7%	-6	1.9
COc1ccc(S(=O)(=O)Nc2ccccn2)cc1OC	0	30	1.6	?	19%	4	-0.6
O=C(O)c1ccc(NS(=O)(=O)c2cccc(C(=O)Nc3ccc([N+](=O)[O-])cc3)c2)cc1	13	-1	-1.7	2.1	96%	12	-0.8
CCOC(=O)c1c(-c2ccc(C)cc2)cn2ccccc12	-16	-2	2.0	-4.9	?	-13	0.1
COc1ccc(-c2ccc3c(c2)S(=O)(=O)c2cccc(C(=O)NC[C@@H]4CCCO4)c2C3=O)cc1OC	0	.	2.3	.	.	-2	-0.7
COc1ccccc1NC(=O)CSc1nncn1-c1ccccc1	98*	-4	2.2	2.0	.	-7	-13
Cc1ccccc1-c1cc(C(=O)NCc2cccs2)n(CC2CC(c3cccnc3)=NO2)n1 (configuration not stated)	8	.	-2.0	.	.	-2	3.5
Cc1ccc(-c2n[nH]c(Cc3ccccc3)n2)cc1	-2	5	-0.9	3.2	.	6	-5.8
CCN1C(=O)[C@H]2[C@@H](c3ccc(-c4ccc(OC)cc4)c(OC)c3)N3CCCC[C@@]3(C(=O)OC)[C@H]2C1=O	2	-6	2.1	0.1	.	2	1.6
O=[N+]([O-])c1cccc(-c2nc3ccccc3s/c2=N/O)c1	.	21	1.4	3.7	.	4	0.8
Cc1cccc(NC(=O)C2CCCN(S(=O)(=O)c3c(C)nn(C)c3C)C2)n1 (configuration not stated)	-1	-2	-3.5	-0.2	-2%	8	1.4
COCCn1c(=S)[nH]c2cc(C(=O)N3CCCC(C)C3)ccc2c1=O (configuration not stated)	4	7	-2.2	2.7	.	3	2.9
CCN(Cc1ccccc1)S(=O)(=O)c1cc(C(=O)c2c(N)n(C)c(=O)n(C)c2=O)ccc1OC	-2	3	3.1	-0.3	-3%	-17	-0.8
CC1=NN(c2cccc(Cl)c2)C(=O)C1	-12	-12	4.3	-1.4	4%	0	4.6
CC(C)COc1nc2c(c(=O)n(C)c(=O)n2C)n1C	-5	-3	-3.5	-3.7	-2%	2	-0.9
C[C@@]1([C@@H](NC(=O)c2cccs2)c2ccc(-c3ccccc3)cc2)C[C@H]1C1CCCCC1	-1	2	0.3	3.8	6%	6	1.5
CCOc1ccc2nc(C(=O)N3CCCC(C)C3)sc2c1 (configuration not stated)	.	21	0.9	-0.2	.	4	5.8
O=C(c1cnccn1)N1CCN(c2ccccc2)CC1	32	2	3.3	-2.8	4%	-1	2.4
OCCC1CN(Cc2cn[nH]c2C2CCCCC2)CCN1C1CCCCC1 (configuration not stated)	-1	-1	3.0	1.5	27%	8	9.1
Cc1nn(Cc2ccccc2Cl)c(C)c1C(=O)N1CCN(c2ccccc2)CC1	-1	15	-2.2	?	-9%	9	4.1
O=C1C2CC=CCC2C(=O)N1Cc1ccccc1Cl (configuration not stated)	27	?	-0.8	1.7	-8%	-1	0.2
Cc1cccc(NC(=O)C2(c3ccccc3)CC2(Cl)Cl)c1 (configuration not stated)	8	33	1.0	-0.7	-5%	-3	3.9
O=C(CSc1ncccn1)N1CCCc2ccccc21	-2	-23	1.3	.	25%	-1	3.3
CCCc1cc(=O)oc2cc(C)cc(OC(C)C(=O)NCC(O)c3ccccc3)c12 (configuration not stated)	0	-6	0.5	5.0	5%	8	-2.0
(list continues)
SMILES	ALR inh	Calb FLC	HNF4A DNA FP	RanGTP-Imp inh	Vif A3G	B2AR ag	LANA-H2B inh
N#C/C(=C/c1ccc(-c2cc([N+](=O)[O-])ccc2Cl)o1)C(N)=O	-5	-21	-6.2	-9.3	0%	4	13
CCOC(=O)CN1C(=O)S/C(=C/c2cc(C)n(-c3ccccn3)c2C)C1=O	-5	0	2.4	2.0	1%	11	-2.5
O=C(CC1SC(N2CCOCC2)=NC1=O)Nc1ccccc1F (configuration not stated)	-3	.	0.4	.	.	-11	-2.2
COC(=O)C1=C(C)NC(=O)C1(NC(=O)c1cccnc1)C(F)(F)F (configuration not stated)	-1	0	2.4	-0.4	11%	-2	0.3
O=C(CSc1nnc(Cc2ccccc2)o1)Nc1ccc(Br)cn1	-10	-2	-0.4	2.6	-3%	1	-0.9
O=C(OCCOCCN=C1NS(=O)(=O)c2ccccc21)c1ccccc1Br	.	-1	-2.8	2.8	3%	5	1.3
Cc1cc(C)c(S(=O)(=O)NCCSCc2ccco2)c(C)c1	0	.	3.4	.	7%	-2	.
CCCS(=O)(=O)c1nc(S(=O)(=O)c2ccc(C)cc2)c(NCCN2CCOCC2)s1	1	-7	-2.6	-1.3	-5%	-7	-5.6
CCC1CCCCN1CCCNC(=O)Cn1ncc2c(C)n(Cc3ccccc3Cl)c(C)c2c1=O (configuration not stated)	-1	0	2.4	-0.8	-4%	10	-3.1
COc1ccc2oc(=Nc3ccccc3)c(-c3nc4ccccc4[nH]3)cc2c1	0	23	0.7	-69	8%	-14	-0.3
O=C(Cn1nc([N+](=O)[O-])nc1Br)NC1CCCCC1	-20	5	0.1	1.3	.	4	-3.4
C[C@H](NC(=O)OC(C)(C)C)C(=O)N/N=C/C1=Cc2ccccc2OC1	-33	-7	7.3	11	.	9	1.8
CCc1nnc(NS(=O)(=O)c2ccc(NC(=S)NC(=O)/C=C/c3ccccc3)cc2)s1	10	-5	-4.1	-2.8	.	18	-7.1
COc1ccccc1NS(=O)(=O)c1ccc(C)c(C(=O)NCC2(N(C)C)CCCCC2)c1	-2	.	-1.2	.	-9%	-3	-1.1
O=C(Cc1ccccc1[N+](=O)[O-])N/N=C/c1cccnc1	0	-3	-1.4	3.8	3%	3	4.6
Cc1cccc(NC(=O)c2cccc(N3C(=O)C4C5CCC(C5)C4C3=O)c2)c1C (configuration not stated)	-5	-13	-1.9	-3.6	0%	-2	-1.4
CC1CCN(C(=O)c2ccc3c(c2)OCO3)CC1	-3	0	-1.1	1.6	-2%	-1	-0.4
O=C(CSc1nnc(C2COc3ccccc3O2)o1)NC1CCCCC1 (configuration not stated)	12	-5	2.9	0.3	9%	-1	-1.7
COc1cc(/C=N/OCC(=O)NC23CC4CC(CC(C4)C2)C3)ccc1OCc1ccccc1	-8	-4	0.5	-2.3	.	-6	2.5
Cc1cc(C)n(/N=C/c2cccc([N+](=O)[O-])c2)c(=O)c1	54	1	-4.5	1.1	.	-9	-1.8
O=c1c2c3c(sc2n2cnnc2n1CCc1ccccc1)CCCC3	-2	13	0.5	-2.1	-5%	-10	2.8
CCN(Cc1ccncc1)C(=O)c1ccc(Br)o1	2	-1	1.4	-3.2	2%	-5	-0.4
COc1ccc2oc(-c3ccc(NC(=O)c4ccc(N5CCOCC5)c([N+](=O)[O-])c4)cc3)nc2c1	.	59	-0.9	-1.2	.	8	.
CCOc1ccc(NC(=O)CSc2nc3ccccc3nc2N2CCOCC2)cc1	0	-13	-2.6	?	.	-11	-5.2
CC(=O)Nc1ccc(S(=O)(=O)NCC(=O)OCC(=O)NC(=O)C2CCCCC2)cc1	-5	-4	-0.3	-2.5	-3%	-1	-0.3

Full records, quoted from the list. Values in the order: ALR inh, Calb FLC, HNF4A DNA FP, RanGTP-Imp inh, Vif A3G, B2AR ag, LANA-H2B inh
Results for O=C1C2CC=CCC2C(=O)N1Cc1ccccc1Cl (configuration not stated) = 27, ?, -0.8, 1.7, -8%, -1, 0.2
Results for CCN(Cc1ccccc1)S(=O)(=O)c1cc(C(=O)c2c(N)n(C)c(=O)n(C)c2=O)ccc1OC = -2, 3, 3.1, -0.3, -3%, -17, -0.8
Results for CCN(Cc1ccncc1)C(=O)c1ccc(Br)o1 = 2, -1, 1.4, -3.2, 2%, -5, -0.4

The listing continues.
SMILES	ALR inh	Calb FLC	HNF4A DNA FP	RanGTP-Imp inh	Vif A3G	B2AR ag	LANA-H2B inh
CN1CCN(c2ccc(NC(=O)N3CCc4ccccc43)cc2)CC1	42	23	-0.3	0.3	4%	-7	0.8
CCCC(=O)Nc1cccc(NC(=O)CN2CCN(c3ccccc3OC)CC2)c1	.	-1	-1.1	4.9	3%	3	.
CCOc1ccc(S(=O)(=O)N2c3ccccc3CC2C)cc1 (configuration not stated)	0	-10	-0.6	?	23%	37	7.4
O=C(COc1nsnc1N1CCOCC1)Nc1cccc(Cl)c1	-3	-1	2.4	0.8	0%	-9	0.4
CC(C)(C)[C@@H]1C=C(C(=O)N2CCN(Cc3ccccc3)CC2)O[C@H](OCCCCO)C1	.	-19	4.0	-1.9	-5%	-7	-0.3
COc1ccc(NC(=O)c2ccc3c(=O)n(Cc4ccco4)c(=S)[nH]c3c2)c(OC)c1	-7	2	3.3	3.3	1%	-3	10
NC(=O)c1ccc2nc(NC(=O)c3ccc(N)cc3)sc2c1	.	29	4.0	-1.1	3%	-4	.
COc1ccccc1NC(=O)Nc1ccc2[nH]c(=O)[nH]c2c1	-2	-9	2.9	3.4	.	6	0.5
COc1ccc(C(=O)Nc2nc3ccc(S(C)(=O)=O)cc3s2)cc1OC	2	-6	2.1	-0.7	-44%	3	-0.6
Cc1cccc(CC(=O)Nc2ccc(C(=O)N3CCOCC3)cc2)c1	-5	-12	-2.1	-3.9	.	-2	2.4
Cc1cc(C(F)(F)F)nn1CC(=O)N1CCCC1	-4	6	-0.6	-1.4	22%	9	6.3
Clc1ccc(OCCCN2CCc3ccccc3C2)c(Br)c1	-3	-2	4.0	3.4	.	-1	-7.8
CC1CCCN(C(=O)C(Cc2ccccc2)n2cccc2)C1 (configuration not stated)	7	-1	-3.9	0.3	-5%	0	2.0
O=C(CSc1ccccc1Cl)NC1CCCc2ccccc21 (configuration not stated)	-6	13	1.3	2.7	4%	14	0.6
COc1cc(OC)c(C(=O)OCC(=O)N2CC(=O)Nc3ccccc32)cc1OC	-1	7	1.5	5.2	2%	-7	8.4
COc1ccc(C(=O)NNC(=O)Nc2ccc(C)cc2)cc1	11	-10	-6.2	11	.	1	1.4
CCOC(=O)c1c(S(=O)(=O)NCC2CCN(Cc3cccc(F)c3)CC2)c(C)n(C)c1C	2	-2	0.1	14	-4%	0	2.9
CCOC(=O)NN1C(=O)c2ccccc2NC1c1ccc(OC)cc1 (configuration not stated)	4	-11	0.4	-0.6	-3%	-5	6.1
O=C(c1cnn2c(C(F)F)cc(-c3ccccc3)nc12)N1CCc2ccccc21	-13	-15	0.4	5.0	.	-17	2.0
COc1ccc2nc(NC(=O)CSc3nc4ccccc4o3)sc2c1	47	3	-1.1	2.6	-13%	-3	2.2
Nc1ncnc2c1ncn2[C@@H]1O[C@H](CNCc2ccc(OCC(=O)Nc3ccccn3)cc2)[C@@H](O)[C@H]1O	.	.	0.7	.	-2%	3	-0.2
Cc1cccc(NC(=O)CSCC(=O)N2CCN(c3cccc(C(F)(F)F)c3)CC2)c1	.	.	2.9	.	-7%	5	-1.0
Nc1nonc1-n1nnc(C(=O)N/N=C/c2cccc(F)c2)c1-c1ccccc1	.	-18	3.2	-2.1	.	-6	-1.1
O=C(Nc1nc(-c2cc3ccccc3oc2=O)cs1)c1ccco1	32	24	-0.1	3.1	0%	12	-2.9
COc1ccccc1-c1nnc(NC(=O)c2ccc(S(=O)(=O)N3CCCC3)cc2)o1	-4	-9	1.9	2.4	.	9	-3.3
O=C(c1ccc(Cl)cc1)N1CCCC(C(=O)N2CCc3ccccc3C2)C1 (configuration not stated)	-14	1	2.7	5.0	-7%	-8	3.7
